Ecoli rRNA inh: inhibitors of bacterial rRNA selective over humanized ribosomes | AID 720706 | GFP signal change (wild-type ribosome), % (no concentration beside the values) | E. coli WT GFP vs humanized-ribosome RFP mutants, fluorescence, 24 h; stronger effect = lower value; DMSO median 0, no signal -100 | 350,000 compounds, 1.6% hits;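 active means significant combined selectivity score with lowered wild-type GFP, culture density cut under 30%, mutant RFP and density less affected; inactive means any of these conditions unmet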; further: one replicate is shown; some compounds called inactive have numbers as strong as hits
Ecoli rRNA inh OD600: second read-out of Ecoli rRNA inh, no call of its own (marks repeat the call); OD600 change, %; measured here: OD600 growth;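 optical density of the mix in the first replicate; 0 = DMSO median and -100 = no signal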
Ecoli rRNA inh RFP: further read-out of Ecoli rRNA inh, marked with its call; RFP signal change, %; measured here: RFP humanized mutant strains;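 first replicate; 0 = DMSO median and -100 = no signal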
Starred values were filed as active, the others as inactive; & = joins results of further samples. Some of the compounds tested, so the mix of outcomes need not match the whole.

SMILES	Ecoli rRNA inh	Ecoli rRNA inh OD600	Ecoli rRNA inh RFP
CCCCNC(=O)C1(C)CCCCN1Cc1ccc(-c2ccccc2)cc1 (stereo unspecified)	-34	-71	-3.3
COc1cccc(S(=O)(=O)N2CCCCN3[C@H](C2)[C@H](c2ccc(-c4cncnc4)cc2)[C@@H]3CO)c1	-4	-16	-3.3
COc1ccccc1CNC(=O)C[C@H]1C[C@H]2c3cc(NC(=O)Nc4ccc(C(F)(F)F)cc4)ccc3O[C@H]2[C@@H](CO)O1	-4	11	-5.2
C[C@H](O)C#Cc1ccc2c(c1)O[C@H](CN(C)C(=O)Nc1ccccc1)[C@@H](C)CN([C@@H](C)CO)S2(=O)=O	1	0	3.6
CN1C(=O)c2cc(NC(=O)Nc3ccccc3F)ccc2OC[C@H]2O[C@H](CC(=O)NCc3ccc(-c4ccccc4)cc3)CC[C@@H]21	2	3	-1.7
C[C@H]1CN([C@@H](C)CO)C(=O)Cc2cc(NC(=O)Cc3ccccc3)ccc2O[C@H]1CN(C)C(=O)Nc1ccc2c(c1)OCO2	3	10	-3.3
CC(C)c1cn(CC[C@H]2CC[C@@H](NC(=O)Nc3cc(Cl)cc(Cl)c3)[C@@H](CO)O2)nn1	-19	-45	11
COCC#Cc1ccc2c(c1)O[C@@H](CN(C)Cc1ccccn1)[C@@H](C)CN([C@@H](C)CO)S2(=O)=O	-3	2	-1.6
C[C@@H]1CN([C@@H](C)CO)C(=O)c2cc(C#C[C@@H](C)O)cnc2O[C@@H]1CN(C)Cc1ccccn1	1	9	-3.5
COc1cccc(-c2cn(CC[C@H]3CC[C@@H](NC(C)=O)[C@H](CO)O3)nn2)c1	-1	14	-1.0
C[C@H](CO)N1C[C@H](C)[C@@H](CN(C)S(=O)(=O)c2ccccc2)Oc2ccc(NC(=O)Cn3cnnn3)cc2CC1=O	3	2	-0.3
CC(=O)N(C)C[C@H]1Oc2c(NC(=O)NC(C)C)cccc2C(=O)N(C)C[C@H]1C	-1	-2	-2.2

In a second layout: 9 of the compounds above
Ecoli rRNA inh | Ecoli rRNA inh OD600 | Ecoli rRNA inh RFP | SMILES
-34 | -71 | -3.3 | CCCCNC(=O)C1(C)CCCCN1Cc1ccc(-c2ccccc2)cc1 (stereo unspecified)
-4 | -16 | -3.3 | COc1cccc(S(=O)(=O)N2CCCCN3[C@H](C2)[C@H](c2ccc(-c4cncnc4)cc2)[C@@H]3CO)c1
-4 | 11 | -5.2 | COc1ccccc1CNC(=O)C[C@H]1C[C@H]2c3cc(NC(=O)Nc4ccc(C(F)(F)F)cc4)ccc3O[C@H]2[C@@H](CO)O1
1 | 0 | 3.6 | C[C@H](O)C#Cc1ccc2c(c1)O[C@H](CN(C)C(=O)Nc1ccccc1)[C@@H](C)CN([C@@H](C)CO)S2(=O)=O
2 | 3 | -1.7 | CN1C(=O)c2cc(NC(=O)Nc3ccccc3F)ccc2OC[C@H]2O[C@H](CC(=O)NCc3ccc(-c4ccccc4)cc3)CC[C@@H]21
3 | 10 | -3.3 | C[C@H]1CN([C@@H](C)CO)C(=O)Cc2cc(NC(=O)Cc3ccccc3)ccc2O[C@H]1CN(C)C(=O)Nc1ccc2c(c1)OCO2
-19 | -45 | 11 | CC(C)c1cn(CC[C@H]2CC[C@@H](NC(=O)Nc3cc(Cl)cc(Cl)c3)[C@@H](CO)O2)nn1
-3 | 2 | -1.6 | COCC#Cc1ccc2c(c1)O[C@@H](CN(C)Cc1ccccn1)[C@@H](C)CN([C@@H](C)CO)S2(=O)=O
1 | 9 | -3.5 | C[C@@H]1CN([C@@H](C)CO)C(=O)c2cc(C#C[C@@H](C)O)cnc2O[C@@H]1CN(C)Cc1ccccn1

New compounds follow.
SMILES	Ecoli rRNA inh	Ecoli rRNA inh OD600	Ecoli rRNA inh RFP
C[C@H]1CN(C)C(=O)Cc2cc(N)ccc2O[C@H]1CN(C)C(=O)OC(C)(C)C	4	7	-0.2
COc1ccc(-c2ccc3n(c2=O)C[C@H]2[C@H](CO)[C@@H](C(=O)Nc4ccccc4)N(C)[C@@H]32)cc1	-3	3	3.6
CCCN1C[C@H](C)[C@H](OC)CN(C)C(=O)c2cc(NC(=O)Nc3ccccc3F)ccc2OC[C@@H]1C	3	2	-0.1
C[C@@H]1CCCCO[C@@H](CN(C)C)[C@@H](C)CN([C@H](C)CO)C(=O)c2cc(NS(C)(=O)=O)ccc2O1	4	14	-2.0
CO[C@@H]1CN(C)C(=O)c2ccc(NC(C)=O)cc2OC[C@H](C)N(C(=O)CC2CC2)C[C@@H]1C	1	1	-2.3
NC(CCc1ccccc1)c1csc(Nc2nccc(C(F)(F)F)n2)n1 (stereo unspecified)	-62	-81	-19
CC(C)NC(=O)N(C)C[C@H]1Oc2ccc(NS(C)(=O)=O)cc2CC(=O)N([C@@H](C)CO)C[C@H]1C	12	19	-2.0
Cc1noc(C)c1NC(=O)Nc1ccc2c(c1)C(=O)N([C@@H](C)CO)C[C@@H](C)[C@H](CN(C)Cc1ccc(Cl)c(Cl)c1)OCCCC[C@@H](C)O2	1	-26	4.5
O=c1[nH][nH]c2c1C(c1ccc(Cl)c(Cl)c1)OC(CCc1ccccc1)C2 (stereo unspecified)	-18	-29	13
CC(C)C1CCN(C(=O)C2CCC(=O)N(C3CCCCCC3)C2)CC1 (stereo unspecified)	-27	-64	-2.5
CO[C@@H]1CN(C)C(=O)c2ccc(NS(=O)(=O)CC(F)(F)F)cc2OC[C@@H](C)N(C(=O)c2ccc3c(c2)OCO3)C[C@@H]1C	2	4	1.7
C[C@H]1CN([C@@H](C)CO)S(=O)(=O)c2ccc(-c3ccncc3)cc2O[C@@H]1CN(C)Cc1cncnc1	0	6	-2.0
O=C(C1CCOCC1)N1CC(=O)N2[C@H](CO)[C@@H](c3ccc(-c4cccnc4)cc3)[C@H]2C1	3	-4	-1.2
C[C@@H]1CN([C@H](C)CO)C(=O)c2cccc(NC(=O)C3CCCCC3)c2O[C@@H]1CN(C)Cc1ccc(C(=O)O)cc1	1	12	0.7
C[C@H]1CN([C@@H](C)CO)C(=O)c2cc(C#CC3CCCC3)cnc2O[C@H]1CN(C)Cc1ccncc1	3	11	-0.7
COc1ccc(C2=Nc3ccccc3NC(=O)C2N(CCc2ccccc2)C(=O)c2cccs2)cc1 (stereo unspecified)	2	-3	6.0
COc1ccc2c3c([nH]c2c1)[C@H](CO)N(S(C)(=O)=O)CC31CCN(C(=O)c2ccncc2)CC1	1	4	1.2
C[C@@H]1CN([C@H](C)CO)C(=O)Cc2cc(NS(=O)(=O)c3ccccc3)ccc2O[C@@H]1CN(C)Cc1ccc(Oc2ccccc2)cc1	-1	-9	1.0
O=C(c1cnccn1)N1CC(=O)N2[C@H](CO)[C@@H](c3ccc(C#CCc4ccccc4)cc3)[C@H]2C1	-1	-5	-3.6
CC1(C(=O)Nc2ccc3c(c2)OCCO3)CCC(=O)N1CCc1c[nH]c2ccccc12 (stereo unspecified)	0	-5	-7.4
COc1ccc(CN(C)C(=O)[C@@H](Cc2ccccc2)NC(=O)[C@H]2O[C@@H](n3ccc(N)nc3=O)[C@H](O)[C@@H]2O)cc1OC	0	4	-0.3
CN1C(=O)c2cc(NC(=O)C3CCCC3)ccc2OC[C@@H]2O[C@H](CC(=O)NCCc3ccncc3)CC[C@H]21	3	9	0.5
C[C@H]1CN([C@@H](C)CO)C(=O)c2cc(/C=C/c3ccccc3)cnc2O[C@H]1CN(C)C(=O)Nc1ccc(C(F)(F)F)cc1	0	17	-0.1
CC(=O)Nc1ccc(NC(=O)CCCN2C(=O)C(c3ccccc3)Oc3cccnc32)cc1 (stereo unspecified)	-9	-15	-3.1
CO[C@H]1CN(C)C(=O)c2cc(NC(=O)NC(C)C)ccc2OC[C@@H](C)NC[C@@H]1C	2	2	-4.7
CO[C@H]1CN(C)C(=O)c2ccc(NC(=O)NC(C)C)cc2OC[C@H](C)N(Cc2cncnc2)C[C@@H]1C	1	0	0.0
O=C(CSCC(=O)OCC(=O)N1CCN(C(=O)c2ccco2)CC1)Nc1ccc(Cl)cc1	12	20	0.4
C[C@H]1CN([C@@H](C)CO)C(=O)Cc2cc(NS(=O)(=O)c3ccccc3)ccc2O[C@H]1CN(C)Cc1ccncc1	2	1	0.3
CCCN(C)C[C@H]1OCCCC[C@H](C)Oc2ccc(NS(=O)(=O)c3ccc(OC)cc3)cc2C(=O)N([C@H](C)CO)C[C@H]1C	2	11	2.5
C/C=C/c1ccc([C@@H]2[C@H](CO)N(C(=O)c3cnccn3)C23CN(C(=O)C2CCC2)C3)cc1	-1	-1	-0.4
C[C@H](CO)N1C[C@H](C)[C@H](CN(C)Cc2ccccc2C(=O)O)Oc2cc(-c3ccc(F)cc3)ccc2S1(=O)=O	-1	9	0.4
CO[C@@H](CN(C)S(=O)(=O)c1ccc(Cl)cc1)[C@@H](C)CN(C(=O)Nc1ccccc1F)[C@H](C)CO	-5	-19	0.1
C[C@@H]1CN([C@@H](C)CO)C(=O)c2cc(NC(=O)CCCN(C)C)ccc2O[C@H]1CN(C)C(=O)Nc1cccc2ccccc12	1	8	-3.3
c1ccc(-c2ccc3nncn3c2)cc1	2	-9	-2.6
COc1ccccc1NC(=O)N[C@@H]1C=C[C@H](CC(=O)N[C@H](C)c2ccccc2)O[C@H]1CO	0	-3	-1.8
COc1ccc(CN(C)C[C@@H]2OCCCC[C@H](C)Oc3ccc(NS(=O)(=O)c4cn(C)cn4)cc3C(=O)N([C@H](C)CO)C[C@@H]2C)cc1	4	-1	2.4
O=C(C[C@H]1CC[C@@H](NC(=O)Cc2cccnc2)[C@H](CO)O1)Nc1ccc(-c2ccccc2)cc1	-6	-7	1.4
O=C(Nc1ccc2c(c1)[C@@H]1C[C@@H](CC(=O)N3CCc4ccccc4C3)O[C@@H](CO)[C@@H]1O2)c1ccc2c(c1)OCO2	-9	-28	1.3
CCCC(=O)Nc1ccc2c(c1)C(=O)N(C)C[C@@H](OC)[C@@H](C)CN(C(=O)c1ccccc1F)[C@H](C)CO2	-1	4	-4.0
O=C1NC[C@@H](CCCCN2CCN(Cc3ccccc3)C(=O)C2=O)N(CC2CCCCC2)C1=O	2	12	-1.1
CC=Cc1ccc2n(c1=O)C[C@@H]1[C@@H](CO)[C@H](C(=O)N[C@@H](C)c3ccccc3)[C@H]2N1CC1CC1 (mixture of isomers)	0	4	-2.5
Cc1noc(C)c1S(=O)(=O)Nc1ccc2c(c1)C(=O)N([C@@H](C)CO)C[C@@H](C)[C@@H](CN(C)C(=O)NC(C)C)O2	4	2	2.2
Cn1cnc(S(=O)(=O)N[C@@H]2CC[C@@H](CC(=O)NCC3CCCCC3)O[C@@H]2CO)c1	-1	6	-2.1
C[C@@H]1CN([C@H](C)CO)C(=O)CCCn2nncc2CO[C@@H]1CN(C)CC1CCCCC1	2	-1	0.1
C[C@@H]1CN([C@H](C)CO)C(=O)c2cccc(NS(=O)(=O)c3ccc(F)cc3)c2O[C@@H]1CN(C)C	2	1	1.8
CCC(=O)N(C)C[C@@H]1Oc2ncc(C#CCC(C)C)cc2C(=O)N([C@H](C)CO)C[C@@H]1C	4	0	-2.0
C[C@@H]1CN([C@@H](C)CO)C(=O)c2cccc(NS(=O)(=O)c3cn(C)cn3)c2O[C@H]1CN(C)Cc1ccncc1	-5	6	-3.4
C[C@@H]1CCCCO[C@H](CN(C)C(=O)NC2CCCCC2)[C@@H](C)CN([C@H](C)CO)C(=O)c2cc(NS(C)(=O)=O)ccc2O1	7	8	2.3
C[C@H]1CN([C@@H](C)CO)C(=O)Cc2cc(NS(=O)(=O)c3ccc(F)cc3)ccc2O[C@H]1CN(C)C(=O)Nc1ccccc1	4	10	1.1
O=C(N[C@H]1CC[C@H](CCNC(=O)C2CCCC2)O[C@H]1CO)c1ccncc1	3	0	-0.3
COc1ccc(S(=O)(=O)Nc2ccc3c(c2)C(=O)N([C@H](C)CO)C[C@@H](C)[C@H](CN(C)S(=O)(=O)c2cccs2)OCCCC[C@@H](C)O3)cc1	-4	4	3.0
COCC(=O)N1CC(=O)N2[C@H](CO)[C@H](c3ccc(C#CC4CC4)cc3)[C@@H]2C1	5	11	-2.3
C[C@H]1CN([C@@H](C)CO)S(=O)(=O)c2ccc(C3=CCCCC3)cc2O[C@H]1CN(C)C(=O)Cc1ccccc1	-13	-27	9.2
COc1cccc(CNC(=O)C[C@@H]2C=C[C@@H](NC(=O)C3CCC3)[C@H](CO)O2)c1	5	6	-1.2
C[C@@H]1CN([C@@H](C)CO)C(=O)CCCn2nncc2CO[C@@H]1CN(C)S(=O)(=O)c1ccc2c(c1)OCCCO2	3&0	8&0	0.0&0.7
OC[C@@H]1[C@H](c2ccc(C#CC3(O)CCCC3)cc2)[C@@H]2CN(Cc3ccncc3)CCCCN12	2	2	-3.2
CCC(=O)Nc1ccc2c(c1)OC[C@H](C)N(C(=O)c1cnccn1)C[C@H](C)[C@H](OC)CN(C)C2=O	2	2	-2.9
O=C(C[C@@H]1CC[C@@H]2[C@H](COC[C@H](O)CN2S(=O)(=O)c2ccc(F)cc2)O1)N[C@H]1CCN(Cc2ccccc2)C1	-1	0	-0.6
COc1cccc(NC(=O)N(C)C[C@@H]2Oc3cc(C#CC4(O)CCCC4)ccc3S(=O)(=O)N([C@H](C)CO)C[C@@H]2C)c1	0	-15	0.5
NC(c1ccccc1)c1csc(Nc2ccc(C(F)(F)F)cn2)n1 (stereo unspecified)	-47	-81	-18
Remaining list, next part
SMILES	Ecoli rRNA inh	Ecoli rRNA inh OD600	Ecoli rRNA inh RFP
Cc1c(C(=O)N(C)Cc2ccc(F)cc2)sc(=O)n1Cc1ccc(Cl)c(Cl)c1	-32	-68	-7.7
Cc1cc(Br)cn2c(Cc3ccsc3)c(-c3cccc(Br)c3)nc12	-29	-31	12
CN(C)CC(=O)Nc1ccc2c(c1)[C@@H]1C[C@@H](CC(=O)N3CCCCC3)O[C@@H](CO)[C@@H]1O2	-3	8	-0.5
C[C@@H]1CN([C@H](C)CO)C(=O)Cc2cc(NC(=O)c3ccncc3)ccc2O[C@H]1CN(C)C(=O)Nc1ccc2c(c1)OCO2	5	8	0.7

High-throughput results from PubChem BioAssay.
